Compound activity deposited in PubChem BioAssay by several laboratories.
CSC inhib: cancer stem cell inhibition. cancer stem cell-like cells viability, luminescence. inhibition, % at 7.5 µM. hit rate 1.1% among 300,000;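 active means mean at 75% or more and at least half the replicates too; inconclusive means mean and replicates disagree; tested in HMLE shEcad cells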;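 further: 0% = median of negative and 100% = median of positive control wells; the first replicate is given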
Rce1 inhib: yeast Ras-converting enzyme inhibition; Q03530; calls only; yeast membranes, quenched prenylated peptide cleavage fluorescence; hit rate 0.27% among 290,000;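 active means fall in fluorescence gain of 50% or more versus controls, with final raw signal at or below 3038400; inconclusive means same 50% fall but final raw signal above 3038400; inactive means fall in fluorescence gain under 50%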;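 further: plate controls were neutral control wells for no effect and wells lacking membranes for full effect; tested at 10 µM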
Target sequence (Q03530 whole entry, looked up): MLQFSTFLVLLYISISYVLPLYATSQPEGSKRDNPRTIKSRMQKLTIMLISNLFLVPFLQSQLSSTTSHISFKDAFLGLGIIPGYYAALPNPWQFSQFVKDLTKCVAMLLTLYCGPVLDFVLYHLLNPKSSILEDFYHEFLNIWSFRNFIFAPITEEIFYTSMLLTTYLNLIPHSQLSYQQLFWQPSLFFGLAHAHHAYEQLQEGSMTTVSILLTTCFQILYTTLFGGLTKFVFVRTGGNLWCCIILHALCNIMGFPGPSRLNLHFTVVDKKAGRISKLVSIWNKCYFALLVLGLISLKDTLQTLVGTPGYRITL
UUG fidelity: modulators of start codon recognition fidelity in yeast; S. cerevisiae UUG-firefly luciferase reporter, luminescence/redox ratio; activity score, % at 18.7 µM; hit rate 0.13% among 350,000;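 active means replicate mean at a twofold rise or more, about +100% in these data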;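 further: firefly luciferase made from a UUG start codon reports start codon fidelity; reporter light over untreated wells divided by growth signal over untreated wells; some hits fall short of that in this replicate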
MT1-MMP act inh: inhibitors of human MT1-MMP activation; hit rate 0.061% among 360,000; AID 651647; P50281; GFP/RFP ratio change, % at 20 µM; HT1080 RFP-PRO-GFP cells, GFP/RFP ratio fluorescence, overnight; percent of plate control window, DMSO zero;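 active means GFP/RFP ratio change of at least 30% with cell ATP level not reduced by more than half and red fluorescence within 50% of control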; further: strong numbers were not always called active
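Assay system: HT1080 cells carrying an RFP-PRO-GFP reporter | Dosing: Single dose of 20 µM compound, 1% DMSO final | Incubation: Cells overnight before dosing, compound overnight, 37 °C, 5% CO2 | Evaluation: GFP/RFP fluorescence ratio | Control set: DMSO and RFP-L50D-GFP cell wells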
eIF4H FP inh: inhibitors of RNA binding by human eIF4H. eIF4H fluorescence polarization binding assay. hit rate 0.94% among 290,000. Q15056. inhibition, % at 35 µM. AID 2012;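 active means 50% or more with normal probe brightness, or confirmed in later tests; inconclusive means above 50% with abnormal brightness, or retests that disagree; inactive means below 50% or failed in later tests; about a fifth of its hits are not listed in these tables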;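 further: calls also rest on retests at 20 µM and on dose response follow-up; 0% = protein and probe with vehicle and 100% = probe without protein; strong numbers were not always called active; many hits fall short of the cut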
PABP FP inh: blocks human PABP binding to poly(A) RNA; P11940; fluorescence polarization; inhibition, % at 35 µM; hit rate 1% among 290,000;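 active means 50% or more with normal probe brightness, or confirmed in later tests; inconclusive means above 50% with abnormal brightness, or retests that disagree; inactive means below 50% or failed in later tests; about a fifth of its hits are not listed in these tables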;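 further: calls also rest on retests at 20 µM and on dose response follow-up; controls were probe without protein and protein plus probe with vehicle; some compounds called inactive have numbers as strong as hits; many hits fall short of the cut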
HIV Env fusion: inhibitors of HIV Env-mediated cell fusion; HeLa-JRFL Env/CEM21 cell fusion, luciferase; inhibition, % at 12.3 µM; hit rate 1.1% among 360,000;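 active means mean replicate inhibition score of at least 50 and every replicate individually at or above 50; inconclusive means only one of the two criteria met; inactive means mean below 50 and not all replicates reaching 50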;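 further: 0% = plate neutral controls and 100% = maraviroc near 300 nM; one replicate is shown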
eIF4H FP inh retest: further read-out of eIF4H FP inh, marked with its call; inhibition, %; compound at 20 µM; confirmation average;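 mean of two retest wells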
PABP FP inh retest: also measured in PABP FP inh; calls as there; inhibition, %; compound at 20 µM; confirmation repeats;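 mean of two retest wells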
MT1-MMP act inh RFP: recorded beside MT1-MMP act inh, whose call it bears; RFP signal change, %; measured here: RFP expression control read;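 0 = vehicle wells; hits needed this value within 50% of zero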
Active calls of the source: *; i = inactive; ? = inconclusive; . = no result given.

SMILES	CSC inhib	Rce1 inhib	UUG fidelity	MT1-MMP act inh	MT1-MMP act inh RFP	eIF4H FP inh	PABP FP inh	HIV Env fusion	others
Cc1ccsc1C(=O)OCC(=O)Nc1cccc(S(=O)(=O)N2CCCCC2)c1	.	.	9	3	-2	.	.	-6
O=C(Cc1cccs1)N/N=C/c1ccccn1	-9	i	7	4	4	8	3	-5
[O-][n+]1onc2c1CCC1N(O)C(c3ccccc3)CC21O (stereo unspecified)	-8	i	-20	-3	-2	-3	-1	-6
COc1ccc(-c2csc3ncnc(N4CCN(c5ccc(OC)cc5)CC4)c23)cc1	20	i	-15	-7	-13	9	6	-4
CSc1cccc(NS(=O)(=O)c2cccc3nsnc23)c1	0	i	-27	0	-3	-5	0	5
COc1cccc(CNC(=O)CC2C(=O)NCCN2Cc2ccoc2)c1OC (stereo unspecified)	-6	i	-15	-3	-3	-2	-5	-9
CC(OC(=O)c1cccs1)C(=O)Nc1nc(-c2ccccc2)cs1 (stereo unspecified)	-2	i	-2	-1	-2	-5	-2	-18
O=C(Cc1ccccc1)Nc1ccc(F)cc1	-10	i	.	-4	-2	7	6	23
COC(=O)c1c(C)oc2ccc(NS(=O)(=O)c3cccs3)cc12	8	i	-23	4	-11	3	-1	40
O=C1CNC(=S)N1Cc1cccc(Cl)c1	-2	i	-27	-16	6	10	11	-1
COc1cccc(C(=O)Nc2ccc3c(c2)C(=O)NC3=O)c1	-2	i	-3	2	5	-5	3	15
O=C(NC1CCCC1)c1cccc(NC(=O)c2ccco2)c1	-2	i	.	0	3	6	-1	-19
CC(C)CNC(=O)c1cccc(NC(=O)c2ccco2)c1	.	i	-22	3	5	-15	-4	.
COc1ccc(C(N)=O)cc1NC(=O)c1cccc(F)c1	.	i	-13	4	6	1	-7	.
N#CCC(=O)N/N=C/c1ccc(OCC(=O)Nc2ccc(F)cc2)cc1	-13	i	.	-2	-2	-9	8	13
CCc1nnc(NC(=O)c2ccc(COc3cccc(C)c3)o2)s1	.	i	-23	0	-2	-1	3	22
COc1cc2sc(-c3ccc(S(C)(=O)=O)cc3)c(C(=O)NCCCCO)c2cc1OC	-14	.	-5	2	4	.	.	6
COc1ccc(-c2c[n+]3c(n2-c2ccccc2)CCCCC3)cc1	27	i	-7	-8	-20	?	54*	25	PABP FP inh retest=103*
Cc1ccc(C2=NCCNC2=O)c(C)c1	-7	i	-16	1	-2	-3	1	-20
Cc1ccccc1C(=O)Nc1ccc2nc3n(c(=O)c2c1)CCCC3	-8	i	-1	1	2	5	1	-4
Cc1ccccc1-n1c(=O)cc(N2CC(C)OC(C)C2)[nH]c1=O (stereo unspecified)	-7	i	19	14	4	-7	-5	-21
COc1ccc(CC(=O)Nc2ccc3c(c2)OC2(CCCC2)O3)c(OC)c1	.	.	12	1	-2	.	.	-19
CCCNc1c(NS(=O)(=O)c2ccc(C3CCCCC3)cc2)c(=O)oc2ccccc12	29	i	-27	3	3	-11	-8	.
COc1ccccc1C(=O)NCC(=O)NCCCN1CCOCC1	.	.	-17	0	4	.	.	-15
C=CCN1C(=O)c2oc3ccccc3c(=O)c2C1c1ccc(O)c(OC)c1 (stereo unspecified)	-11	i	-10	3	2	-5	-1	-17
CCC(Sc1nc2ccccc2c(=O)n1CC1CCCO1)C(=O)NCc1cccnc1 (stereo unspecified)	-14	i	-14	3	6	-12	-8	-19
N#CCc1ccc(NC(=O)/C=C/c2ccc([N+](=O)[O-])o2)cc1	.	i	-40	-42	-27	81	9	.	eIF4H FP inh retest=-2;PABP FP inh retest=1
O=C(Nc1c2c(nn1-c1ccc(Cl)cc1)CS(=O)(=O)C2)C1CC1	-6	i	-14	1	2	-10	-2	-5
C=CCc1cc(C)ccc1OCCOCCN1CCN(C)CC1	53	.	-11	0	0	1	0	2
CCOC(=O)C(=O)Cc1nc2ccccc2s1	9	i	.	-36	5	12	6	-37
O=c1cccc2c1c1cc[nH]c3ccc(=O)n2c31	-11	i	-3	-51	-16	.	.	.
COCCN1CCN(C(=O)c2cc(COc3ccc(Cl)cc3OC)on2)CC1	9	i	-17	3	-2	2	-16	-38
CNCc1cn2cc(Cl)ccc2n1	-11	i	.	2	9	0	-7	-16
C#CCn1ccc(O)c(Cc2c(F)cccc2Cl)c1=O	-4	i	-7	0	2	3	-9	0
CCN(CC)C(=O)[C@H]1CC(CC(=O)NCCCn2ccnc2)C(=O)N2CCc3c([nH]c4ccccc34)[C@]12C (stereo partly specified)	-2	.	-16	1	4	.	.	.
CC(C)(C)NC(=O)NC(=O)Cn1cc(C(F)(F)F)ccc1=O	-12	i	1	-2	-2	-4	-5	-50
CN(C)C(=O)c1cn(-c2ccccc2)nc1-c1cc2ccccc2o1	-2	i	5	-1	-5	-6	2	10
CCN(CC)Cc1c(O)ccc2c(=O)c(Oc3ccccc3OC)coc12	.	i	.	-2	0	-5	-14	.
Cc1nn(CC(=O)Nc2cccc(O)c2)c(=O)c2ccccc12	.	.	-9	-3	-3	.	.	-3
Cc1ccc(OCC(=O)Nc2ccccc2N2CCCC2)c(C)c1	21	i	.	-4	-4	-2	1	-20

Arranged by SMILES length (highest first): five of the compounds above.
SMILES	CSC inhib	Rce1 inhib	UUG fidelity	MT1-MMP act inh	MT1-MMP act inh RFP	eIF4H FP inh	PABP FP inh	HIV Env fusion	others
C=CCN1C(=O)c2oc3ccccc3c(=O)c2C1c1ccc(O)c(OC)c1 (stereo unspecified)	-11	i	-10	3	2	-5	-1	-17
CN(C)C(=O)c1cn(-c2ccccc2)nc1-c1cc2ccccc2o1	-2	i	5	-1	-5	-6	2	10
C#CCn1ccc(O)c(Cc2c(F)cccc2Cl)c1=O	-4	i	-7	0	2	3	-9	0
CCOC(=O)C(=O)Cc1nc2ccccc2s1	9	i	.	-36	5	12	6	-37
CNCc1cn2cc(Cl)ccc2n1	-11	i	.	2	9	0	-7	-16

Carrying on:
SMILES	CSC inhib	Rce1 inhib	UUG fidelity	MT1-MMP act inh	MT1-MMP act inh RFP	eIF4H FP inh	PABP FP inh	HIV Env fusion	others
COCCn1c(SCC(=O)Nc2sccc2C(N)=O)nc2cc(Cl)ccc2c1=O	-8	i	-2	-8	-20	-8	12	.
CCOc1ccc(OCc2ccc(C(=O)N(C)c3ccccc3)o2)cc1	-4	i	-7	6	-8	-8	-4	2
COc1ccc2ccc(OC)c(/C=N/n3cnnc3)c2c1	-3	i	-19	-2	-5	11	-4	9
COc1ccccc1-c1coc2c(CN3CCCC(C)C3)c(O)ccc2c1=O (stereo unspecified)	6	i	7	0	-6	7	10	-3
CN(CCc1ccccc1)C(=O)c1ccc(NC(=O)Cc2cccc(NC(=O)C3CCN(C(=O)C4CCCCC4)CC3)c2)cc1	.	.	-2	5	1	.	.	0
COc1cccc(C2(C)NC(=O)N(CC(=O)c3cc(C)n(C4CC4)c3C)C2=O)c1 (stereo unspecified)	-7	.	21	0	-2	.	.	5
Nc1ccn([C@@H]2O[C@H](CNCc3ccc(C#CCCO)cc3)[C@@H](O)[C@H]2O)c(=O)n1	.	.	1	1	4	.	.	-7
O=C(NCCO)c1ccc(-c2nnc(N3CCOCC3)c3ccccc23)cc1	0	i	-12	1	0	-3	-3	-7
COc1cccc(C(=O)NCCNC(=O)c2ccco2)c1	-7	i	-7	2	-1	4	0	3
CCCN1CCC(NC(=O)Cc2ccccc2C)CC1	-10	i	-27	2	-1	-2	-4	-19
Cc1cccc(-c2nc3ccc(C(=O)NCCN4CCN(C)CC4)cc3nc2-c2cccc(C)c2)c1	51	i	-6	3	-1	-2	-6	-3
COc1ccccc1NC(=O)N1CCCC1C(=O)Nc1nnc(C(C)C)s1 (stereo unspecified)	11	i	-15	2	6	-10	-7	-38
OCC1C2c3ccccc3C(c3ccccc32)C1CO (stereo unspecified)	-4	i	.	-1	3	-7	12	-13
O=C(CCCN1C(=O)CCC1=O)Nc1cccc(C(F)(F)F)c1	-4	i	-14	-3	2	13	9	.
CCCCNC(=O)c1ccc(NC(=O)CC2SC(N3CCCC3)=NC2=O)cc1 (stereo unspecified)	.	.	-14	2	1	.	.	-5
COC(=O)c1sc(S(=O)(=O)Nc2ccc3cn[nH]c3c2)c(C(=O)OC)c1C	.	i	5	-3	4	-4	5	-9
C=CCc1cc(S(=O)(=O)c2ccc(O)c(CC=C)c2)ccc1O	-6	i	-10	-1	-4	-5	-3	1
Cc1ccc(N/N=C2\CS(=O)(=O)N(C)c3ccsc32)cc1	9	i	-12	2	3	28	26	-23
O=C(Cc1ccccc1)Nc1ccccc1N1CCCC1	-17	i	-1	1	0	6	-9	12
COc1ccc(C)cc1NC(=O)CN1CCN(S(=O)(=O)c2ccc(F)cc2)CC1	8	i	-12	8	-6	4	-5	.
COc1cccc(/C=N/NC(=O)CNC(=O)c2cccnc2)c1O	11	i	-8	2	5	2	6	1
COc1cc(/C=C2\S/C(=N/S(=O)(=O)c3ccc(C)cc3)NC2=O)c([N+](=O)[O-])cc1OC	-8	i	-19	-4	9	57	-9	-47	eIF4H FP inh retest=-7;PABP FP inh retest=12
COc1cc(OC)cc(C(=O)NC(=S)NCCc2ccccc2)c1	2	i	-24	8	-6	-10	-3	.
COc1ccccc1C(=O)Nc1ccc(Cc2ccncc2)cc1	-6	i	.	0	-17	-1	-9	-2
N#CC1=C(N)C(C#N)(C#N)C(c2ccncc2)C2CN(C(=O)OCc3ccccc3)CC=C12 (stereo unspecified)	2	i	7	-42	6	75*	9.4*	.	eIF4H FP inh retest=97*;PABP FP inh retest=89*
CC(=O)c1sc(N/N=C\c2ccccc2O)nc1C	11	i	.	-103	-1	1	-7	-169
COc1cccc(CNC(=O)CS(=O)(=O)Cc2nc(-c3ccc(C)cc3)oc2C)c1OC	.	i	0	-5	-2	-2	4	-28
CSCCC(=O)NC1CC(C)(C)Cc2c1cnn2-c1ccccc1C (stereo unspecified)	-11	i	-22	0	-1	-9	1	1
O=C(CCc1ccccc1)NNC(=O)Nc1cccc(Cl)c1	-15	i	-25	-3	1	-11	6	11
O=C(NNC1=C(C(=O)C(F)(F)F)CCC1)c1ccc(Br)cc1	107*	i	-23	3	-5	12	7	24
COc1ccc(Cl)cc1NC(=O)COC(=O)Cc1cccs1	-10	i	-22	0	1	.	.	4
COc1cccc(-c2nc(CS(=O)(=O)CC(=O)NCCc3ccc(OC)c(OC)c3)c(C)o2)c1	-3	i	.	-1	-5	3	-8	28
CC(C)N(C)C1CCN(C(=O)Nc2ccc(Cl)c(Cl)c2)CC1	-1	i	-11	4	4	7	-2	-4
Cc1ccccc1C(=O)/C=C1/c2ccccc2CC(C)(C)N1C	-8	i	-36	4	-2	-7	-6	9
CCC(C)NS(=O)(=O)c1ccc(NS(=O)(=O)c2ccc(F)cc2)cc1 (stereo unspecified)	-4	i	-2	2	-1	-7	-13	-11
CCc1ccc(CCC(=O)Nc2nnc(CC)s2)o1	9	i	-18	4	5	-7	5	-9
COCC(C)n1c(C)cc(C(=O)COC(=O)/C=C/c2cccc(F)c2)c1C (stereo unspecified)	-13	i	9	-4	-3	-4	-14	18
CCn1nccc1C(=O)Nc1cccc(C)c1C	3	i	-3	1	0	-4	-9	9
CCOc1ccc(CN2CCNC(=O)C2CC(=O)N(C)CC2CCOCC2)cc1 (stereo unspecified)	-16	i	5	-5	0	-1	2	-7
NC(=S)N/N=C/c1ccccc1O	8	i	-11	3	2	9	4	-12
